# Assay outcomes (PubChem)
# Biofilm kill mix: clotrimazole potentiators killing C. albicans biofilm, primary screen, 4-compound mixtures. C. albicans biofilm persisters + clotrimazole, fluorescence viability; primary screen in compound mixtures of four per well. inhibition, % at 7.6 µM. actives 0.02% (n = 120,000). AID 1242, 2008;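 active = inhibition above 30.3% in the primary screen of four-compound pools, then above 30% when the compound was retested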;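 also: compounds exposed to preformed 24 h biofilms for 48 h; the number belongs to the whole pool; some results filed as inactive read as strong as hits; inactives centre near 12; 0% = biofilm with clotrimazole alone and 100% = kill control; retested singly at about 60 µM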
#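 Incubation: 24 h biofilm formation, then 48 h compound exposure, 37 °C | Material: C. albicans biofilms | Buffer or medium: RPMI/MOPS medium, pH 7.0 | Measured by: 2-h Alamar Blue fluorescence, 535/590 nm excitation/emission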
# Active calls of the source: *. Not all compounds are listed (hit frequency here may not be typical).
SMILES,Biofilm kill mix
NC(=O)C1=C[C@@H](c2ccc(C(F)(F)F)cc2)C[C@@H](OCCCCO)O1,15.1
COc1ccc(C2c3ccc(O)cc3Oc3ncn(Cc4ccco4)c(=N)c32)cc1 (configuration not stated),21.6
Cc1ccc(NC(=O)C(=O)NCCN2CCN(S(C)(=O)=O)CC2)cc1,6.6
Cc1cc(/C=N/NC(=O)C(O)(c2ccccc2)c2ccccc2)c(C)n1-c1ccccc1,20.6
Cc1ccc(C2CCN(C(=S)Nc3cccc(Cl)c3)C2)cc1 (configuration not stated),18.2
O=C(c1ccc(S(=O)(=O)c2cccc(Cl)c2)c([N+](=O)[O-])c1)N1CCN(c2ccccn2)CC1,17.9
CCn1c(SCC(=O)Nc2nc(-c3ccccc3)cs2)nc2c1c(=O)n(C)c(=O)n2C,9.0
O=C1Nc2ccccc2/C1=N/N=C/c1ccc(-c2ccc([N+](=O)[O-])cc2)o1,16.1
O=C(CCN1CCCCC1)NNC(=S)NC(=O)c1ccc(Br)cc1,10.8
Nc1nnc(CC(=O)N/N=C/c2ccc(-c3ccc(Cl)cc3Cl)o2)s1,9.2
CCCCCc1cc(=O)oc2c(C(CCN3CCCC(C)C3)c3ccc(N(C)C)cc3)c(OC)cc(OC)c12 (configuration not stated),7.0
COc1ccccc1CCNC(=O)c1csc2c1CCCC2,13.7
CC(=O)Nc1cccc(C(=O)/C=C/c2cccs2)c1,7.0
CC(C)OP(=O)(OC(C)C)/C(C=O)=N\Nc1ccc([N+](=O)[O-])cc1,4.6
CC(=O)N1CCN(C(=O)c2ccc(-n3c(C)ccc3C)cc2)CC1,8.9
CC(C)CN1C(=O)NC(NS(=O)(=O)c2ccc(N)cc2)(C(F)(F)F)C1=O (configuration not stated),17.4
Cc1cc(NC(=O)c2ccc(C)s2)n(-c2nc3ccccc3[nH]2)n1,-4.2
O=C(COn1nnc2ccc(S(=O)(=O)N3CCOCC3)cc21)Nc1c(F)c(F)c(F)c(F)c1F,-3.3
Cc1ccc(S(=O)(=O)c2ccc(NN)cc2)cc1,13.2
Cc1ccc(Cl)cc1NC(=O)C[n+]1ccc(Cc2ccc([N+](=O)[O-])cc2)cc1,14.0

# A second format for part of the listing above:
mol	Biofilm kill mix
CC(=O)N1CCN(C(=O)c2ccc(-n3c(C)ccc3C)cc2)CC1	8.9
Cc1cc(/C=N/NC(=O)C(O)(c2ccccc2)c2ccccc2)c(C)n1-c1ccccc1	20.6
Cc1ccc(C2CCN(C(=S)Nc3cccc(Cl)c3)C2)cc1 (configuration not stated)	18.2
COc1ccc(C2c3ccc(O)cc3Oc3ncn(Cc4ccco4)c(=N)c32)cc1 (configuration not stated)	21.6

# (list continues)
SMILES,Biofilm kill mix
COC(=O)C1=C(C(=O)OC)[C@@H]2N(Cc3ccccc3)c3ccccc3[C@@]23C[C@@H](CO)N(C(=O)NC2CCCC2)C3=N1,15.0
O=C(Nc1nnc(-c2ccco2)o1)c1cccc2ccccc12,13.2
CCOc1ccccc1C1N=C(c2ccc(OC)cc2)CC(c2ccccc2O)N1 (configuration not stated),13.9
O=C(Cn1cccc1C(=O)c1ccccc1)NCc1ccc(Cl)cc1,20.1
O=c1[nH]c(=O)c2nc(-c3ccc(Cl)cc3)cnc2[nH]1,4.6
Cc1ccc2sc(NNC(=O)c3cc(=O)c4ccccc4o3)nc2c1C,15.7
NC(N)=NC(N)=Nc1cccc2ccccc12,25.9
CCN(Cc1ccccc1)S(=O)(=O)c1cc(C(=O)c2c(N)n(C)c(=O)n(C)c2=O)ccc1OC,10.9
Cc1cc(OCC(=O)N[C@@H](Cc2ccccc2)c2nc3ccccc3[nH]2)ccc1Cl,5.7
NC(=O)c1ccsc1NC(=O)CSc1nnc(Nc2ccccc2)s1,16.4
Cc1cc(-c2nnc(SCC(=O)Nc3ccccn3)o2)no1,5.4
CSC1=NSC2=NC(=O)/C(=C\c3cccs3)C(=N)N12,19.9
O=C(N=Nc1c(O)[nH]c2ccccc12)c1cc(-c2cccs2)[nH]n1,-1.5
Cc1ccc(-c2cc3c(nn2)-c2ccccc2C3=O)cc1,20.3
Cc1ccc(NC2(C(F)(F)F)N=C(c3ccccc3)NC2=O)nc1 (configuration not stated),17.4
Cc1nc(C(=O)NCc2ccccc2)sc1C1(C)CC(c2cccnc2)=NO1 (configuration not stated),15.6
CCC(C)C(NC(=O)c1ccccc1NC(=O)c1ccccc1)C(=O)O (configuration not stated),20.2
Cc1c(N)cc[n+](CC(=O)c2ccccc2)c1C,3.5
N#Cc1ccc(S(=O)(=O)Nc2ccc3ccccc3n2)cc1,15.1
Cc1onc(-c2ccccc2)c1CNC(=O)Nc1ccc(C(F)(F)F)cc1,16.7

# Given with tabs: three of the compounds above.
mol	Biofilm kill mix
COc1ccccc1CCNC(=O)c1csc2c1CCCC2	13.7
CC(=O)Nc1cccc(C(=O)/C=C/c2cccs2)c1	7.0
CC(C)OP(=O)(OC(C)C)/C(C=O)=N\Nc1ccc([N+](=O)[O-])cc1	4.6

# Continuation:
SMILES,Biofilm kill mix
Nc1ccc(S(=O)(=O)c2ccc(N)cc2)cc1,3.0
O=C(N/N=C/c1cn(CC(=O)N2CCOCC2)c2ccccc12)c1cccnc1,14.0
CC(/C=N/NC(=O)NC1CCCCC1)=C\c1ccccc1,18.8
COc1ccc(OC)c(Cc2nnc(CCC(=O)N3CCCCC3c3nccs3)o2)c1 (configuration not stated),18.9
CCCCC1=CC2=C(c3ccco3)C(=O)C(C)(OC(=O)c3ccc(OC)cc3)C(=O)C2=CN1C1CCCCC1 (configuration not stated),24.2
COCCCNC(=O)c1cc(Sc2nnc(C)s2)nc2ccccc12,19.3
C=CCn1c(SCC(=O)N2CCCCC2)nnc1-c1ccncc1,8.2
COc1cc(/C=C(\C#N)C(=O)NCC2CCCO2)cc(OC)c1OC (configuration not stated),22.8
C/C(=N/NC(=O)CN1CCN(Cc2ccccc2Cl)CC1)c1cccs1,32.6
CNc1c([N+](=O)[O-])cnn1-c1ccccc1F,6.3
NS(=O)(=O)c1ccc(-c2ccc(/C=N/NC(=O)c3ccccc3O)o2)cc1,14.3
CC(=O)Nc1ccccc1OCC(=O)N(Cc1ccccc1)C(C)C,17.1
O=C(CN1CCc2ccccc2C1)NC1CCCC1,17.2
COc1cc(/C=N/NC(=O)C(Cc2c[nH]c3ccccc23)NC(=O)OCC(C)C)cc([N+](=O)[O-])c1OCc1ccccc1 (configuration not stated),24.5
COc1ccc(OC)c(/C=N/NC(=O)c2[nH]ncc2Br)c1,14.8
CCCCCCCc1nn2c(=O)cc(O)nc2s1,18.5
O=C1C(C2=NC(c3ccccn3)C3C(=O)N(c4ccc(Cl)cc4Cl)C(=O)C23)=C(O)c2ccccc21 (configuration not stated),19.3
O=C(c1ccc(-n2nc(C(F)(F)F)c3c2CCCC3)cc1)N1CCOCC1,8.0
COc1ccc(NC(=O)Nc2nnc(CC(=O)NCc3ccccc3)s2)cc1,12.5
O=C(Cn1cc(C(F)(F)F)ccc1=O)N/N=C/c1cccc(Cl)c1Cl,13.3
COc1ccc(NC(=O)Cc2c[nH]c3ccccc23)cc1S(=O)(=O)N1CCCCC1,16.2
Nc1ncnc2nc(SCCOc3ccc(Cl)cc3)[nH]c12,16.3
O=C(N/N=C/c1cccc2cccnc12)c1ccccc1O,19.0
CC(C)CCN(CC(=O)NC(C)(C)C)C(=O)C(=O)Nc1ccc2c(c1)OCCO2,14.1
Cc1nn2c3ccccc3n(Cc3ccccc3)c2nc1=O,-1.9
CC(C)Cc1nc2sc3c(c2c(=O)n1N)CC(C(C)C)OC3 (configuration not stated),-3.9
COc1ccc(/C=C2/S/C(=N/S(=O)(=O)Cc3ccccc3)NC2=O)cc1OC,23.5
N#Cc1c(N2CCCC2)ccc(Br)c1Cl,5.9
CCOc1ccc(/C=N/NC(=O)c2csc(C)c2C)c(OCC)c1,6.6
Cc1cccc(C)c1N=Cc1c(O)n(-c2nccs2)c(=O)c2ccccc12,23.3
CC(C)n1nc(C(=O)Oc2cc(Cl)ccc2Cl)c2ccccc2c1=O,8.8
O=C(CSc1nnc2c(Cl)cc(C(F)(F)F)cn12)N(Cc1ccccc1)Cc1ccccc1,18.0
Oc1[nH]c2ccccc2c1N=NC(=S)NCC1CCCO1 (configuration not stated),20.6
CCc1nnc(NC(=O)Cc2c[nH]c3ccccc23)s1,7.3
CNC(=O)c1ccc(=O)n(Cc2cccc(C(F)(F)F)c2)c1,5.4
COc1cccc(N(CC(=O)NCc2ccco2)C(=O)CCC(=O)Nc2nccs2)c1,13.9
CC(C)(C)c1cc(NC(=O)c2cccc(S(=O)(=O)N3CCOCC3)c2)no1,6.1
Cc1ccc(C(C[N+](=O)[O-])c2c(C)[nH]n(-c3ccccc3)c2=O)cc1 (configuration not stated),11.1
CCOc1ccccc1NC(=O)CN1CCC(NC(=O)c2ccccc2C)CC1,24.6
CC(=O)N(c1ccc(Cl)cc1)c1nc(C)cc(C)c1C#N,11.4

# Look-ups from the entries so far:
# Biofilm kill mix result of CCOc1ccccc1NC(=O)CN1CCC(NC(=O)c2ccccc2C)CC1 stands at 24.6
# Biofilm kill mix result of CCc1nnc(NC(=O)Cc2c[nH]c3ccccc23)s1 stands at 7.3
# Biofilm kill mix result of Cc1ccc(C(C[N+](=O)[O-])c2c(C)[nH]n(-c3ccccc3)c2=O)cc1 (configuration not stated) stands at 11.1
# Biofilm kill mix result of O=C(N/N=C/c1cccc2cccnc12)c1ccccc1O stands at 19.0

# Further records follow.
SMILES,Biofilm kill mix
O=C(NCCCn1ccnc1)C(Cc1ccc([N+](=O)[O-])cc1)N1C(=O)c2ccccc2C1=O (configuration not stated),11.2
COCc1cc(N2CCCC2)nc(-c2ccccc2)n1,13.0
C=CCNC(=O)COc1ccc(Oc2ccccc2)cc1,9.9
O=C(Nc1nc2ccccc2s1)c1ccc(F)cc1,22.6
Cc1ccc(C(=O)NCC(=O)OCC(=O)c2ccc(C)c([N+](=O)[O-])c2)cc1,13.2
N/C(=N\N=C\c1cccs1)SC1CC(=O)N(c2ccc(Br)cc2)C1=O (configuration not stated),10.5
CCCc1nc2ccc(NC(C)=O)cc2c(=O)n1Cc1ccc(Cl)cc1,24.3
COc1ccc(N=Cc2[nH]c3ccccc3c2O)cc1,-6.8
CCC(C)(C)n1nnnc1C(c1cccs1)N1CCCCC1 (configuration not stated),23.2
Cc1cc(C)nc(NNC2=CC(=[N+]3CCCCC3)CC(C)(C)C2)n1,12.9
Cc1cccc(NC(=S)NCc2ccc(F)cc2)c1,6.7
CC(=O)c1ccc(NC(=O)c2ccc(CSc3ccccc3)o2)cc1,16.9
CCOC(=O)C(CCCCOc1cccc(CC)c1)C(=O)OCC,6.9
Cc1cc(C(=O)c2ccccc2)c(NC(=O)CCl)s1,-0.8
O=C(CO/N=C/c1c(Cl)cccc1Cl)NNC(=O)c1cccc(Cl)c1,14.0
CN(C(=O)c1ccc2c(Cl)c3c(nc2c1)CCC3)c1ccccc1,14.5
COc1ccc(C(=O)C2CCCN(Cc3cccn3-c3ccccn3)C2)c(OC)c1 (configuration not stated),16.6
O=C(CSc1ccc(Cl)cc1)NNC(=O)c1cccnc1,16.8
O=C(O)c1cc(-c2ccco2)nn1-c1cccc(Cl)c1,19.4
C=CCn1c(CCCNC(=O)c2ccccc2OC)nc2ccccc21,10.0
COc1ccccc1/C=N\Nc1ccccc1[N+](=O)[O-],8.3
Cc1ccc(NC(=O)C(=O)NNC(=O)c2cccs2)cc1,15.3
O=C(C1CCC(CNc2c(N3CCCCC3)c(=O)c2=O)CC1)N1CCN(C2CCCCC2)CC1 (configuration not stated),8.5
COc1ccc(/C=N/N2CCOCC2)cc1Cn1nc(C)c([N+](=O)[O-])c1C,15.3
C1CCCCCC2(CCCCC1)OCC(CN1CCOCC1)O2 (configuration not stated),14.7
COc1ccc(CNC(=O)/C=C/C(=O)O)cc1OC,8.2
Cc1ccc(SCCC(=O)Nc2ccccc2C(=O)NC(C)C)cc1,7.7
CC(C)C1COC(c2cccn2Cc2ccccc2Cl)=N1 (configuration not stated),30.0
COc1cc2c(cc1O)CC[n+]1cc3c(OC)c(OC)ccc3cc1-2,3.0
Cc1ccc(-c2nc(C)sc2CC(=O)OCC(=O)Nc2c(F)cccc2F)cc1,-3.2
COC(=O)c1ccc(CSc2nc3c(cnn3-c3ccc(C)cc3)c(=O)[nH]2)o1,13.2
Cn1nccc1C(=O)Oc1ccc(/C=N/NC(=O)c2ccccc2O)cc1,4.0
O=C(O)CC(C(=O)O)N1C(=O)/C(=C/C=C/c2ccco2)SC1=S (configuration not stated),11.5
Cc1ccc2cccc(NC(=S)NC(=O)c3ccnn3C)c2n1,11.8
Cc1ccc(N2C(=O)c3ccc(C(=O)N4CCN(Cc5ccccc5)CC4)cc3C2=O)cc1,23.5
C#CC[N+]1(CC#Cc2ccc(C)cc2)CCCCC1,19.4
CCc1c(O)cc2n(c1=O)-c1ccccc1C2(C)C,14.6
CCCCOC(=O)c1ccc(N=Nc2c(C)c(C#N)c(O)[nH]c2=O)cc1,17.5
O=C(O)CC/C(=N\Nc1ccc([N+](=O)[O-])cc1S(=O)(=O)N1CCOCC1)c1cccs1,7.7
Cc1ccc(C(=O)N2c3ccccc3CC2C)o1 (configuration not stated),9.5
O=C1NC(=O)/C(=C\c2ccc(OCc3cccc(C(=O)O)c3)c(Cl)c2)N1,10.3
COc1ccccc1Nc1nnc(SCc2nnc(-c3cc(OC)c(OC)c(OC)c3)o2)s1,8.5
Cc1nnc(SCC(=O)N2N=C(c3ccc(Cl)cc3)CC2c2ccco2)[nH]c1=O (configuration not stated),16.5
N#CC1=C(N)Oc2c(ccc3cccnc23)C1c1ccccc1 (configuration not stated),15.8
Cc1cc(C(F)(F)F)n2nc(-c3cccs3)cc2n1,12.8
Cc1cc(OCCCn2ccnc2)ccc1C(C)C,1.4
Nc1nc(NCc2ccco2)nc(Nc2cccc(F)c2)c1[N+](=O)[O-],-9.6
COc1ccc(Nc2c(-c3ccco3)nc3ccc(C)cn23)cc1,14.4
Cc1ccc2nc(-c3ccc(NC(=O)CCS(=O)(=O)c4ccccc4)cc3)sc2c1,0.9
COc1ccc(CN(C)CC(=O)Nc2c(C)cccc2C)c(OC)c1,10.6
